# High-throughput results from PubChem.
# Sfp PPTase inh: qHTS Assay for Inhibitors of Bacillus subtilis Sfp phosphopantetheinyl transferase (PPTase) | Potency, µM, without a hit: max response, negative = inhibition, usual class: inhibitors | Biochemical Sfp PPTase activity, qHTS | 4'-phosphopantetheinyl transferase ffp (Bacillus subtilis), Q9F4F7 | 3.5% of 310,000 active; active = well fitted inhibition curve with a large enough effect; inconclusive = small, poorly fitted or top-dose-only effect, or another doubt; inactive = no such curve, though single readings can be large or run the other way;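 note: the enzyme is Sfp with the accession as filed and its product quenches rhodamine fluorescence; potency is the fitted concentration of half-maximal effect; 0% = enzyme reaction without inhibitor and -100% = no enzyme wells; top concentration of the series not given in the record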
#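 After 15 min at room temperature with compound, 15 nM Sfp received 5 uM rhodamine-CoA plus 12.5 uM BHQ-2-ybbR (50 mM Hepes pH 7.6, 10 mM MgCl2). Rate came from the fluorescence difference over 30 min, ex 525/em 598 nm.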
# gsp ag: qHTS for Agonist of gsp, the Etiologic Mutation Responsible for Fibrous Dysplasia/McCune-Albright Syndrome: qHTS; gsp mutant cells, cAMP HTRF, 30 min; control for the full effect not named in the record; Potency, µM (doses to about 76.9 µM), inactives show at the highest dose activation (cAMP increase), actives largely listed as activators; 0.13% of 340,000 active; active = well fitted activation curve with a large enough effect; inconclusive = small, poorly fitted or top-dose-only effect, or another doubt; inactive = no such curve, though single readings can be large or run the other way; cell line not stated here;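 note: phosphodiesterase inhibitor Ro 20-1724 added with compounds to block cAMP breakdown; potency is the fitted concentration of half-maximal effect; nearly all actives have a fitted effect of over 60% in size; about a fifth of the inactives were tested at one dose only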
#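 Cells stably selected in G418 were plated at 2000/well, grown 16-24 hr, then given compounds in DMSO with the PDE inhibitor […] (300 uM solution added) for 30 min at 37C; cAMP was read by HTRF.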
# ClpP mod: qHTS Assay for Activators of ClpP; ATP-dependent Clp protease proteolytic subunit (Bacillus subtilis (strain 168)), P80244; AID 651965, 2013; Potency, µM (series often up to 57.5 µM), for inactives: at the highest dose activity change, negative = active; 1.9% of 340,000 active; purified B. subtilis ClpP, FRET peptide cleavage, 20 min; active = well fitted falling curve with a large enough effect; inconclusive = small, poorly fitted or top-dose-only effect; inactive = no such curve, though single readings can be large or run the other way; note: potency is the fitted concentration of half-maximal effect; the source files actives as falling curves though it sought activators and does not explain the sign; nearly all actives have a fitted effect of over 65% in size; many hits overshoot -100%
# Target sequence (P80244 whole entry, looked up): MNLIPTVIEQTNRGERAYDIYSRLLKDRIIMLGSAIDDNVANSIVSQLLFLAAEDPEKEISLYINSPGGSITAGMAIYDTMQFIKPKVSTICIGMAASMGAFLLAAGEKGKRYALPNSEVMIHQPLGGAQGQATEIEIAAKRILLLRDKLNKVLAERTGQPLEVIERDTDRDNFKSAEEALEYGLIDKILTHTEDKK
#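 FRET quenching reversal measured ClpP activation: 10 microg/mL B. subtilis ClpP at pH 8 with the FRET-FV decapeptide, read at 430 nm after 320 nm excitation. The 20-min minus 0-min signal was scaled between DMSO/no-enzyme wells and ADEP (5.8 microM final).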
# CtBP-E1A blk: qHTS Assay for Inhibitors of the CtBP/E1A Interaction | 0.49% of 340,000 active | AID 651724, 2012 | CtBP / adenovirus E1A interaction (AlphaScreen) | activity change, % (no concentration beside the values) | AlphaScreen GST-E1A/His-CtBP binding, 1536-well; stronger effect = lower value; control for the full effect not named in the record; in the data active means activity change below about -65%; inconclusive means about -30% to -65%; inactive means above about -30%; note: % is set by controls: 0 for no effect and ±100 for the full control effect; compound concentration not given in the record
#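 Homogeneous bead-based format: GST-tagged E1A captured on glutathione donor beads, His-tagged CtBP on nickel acceptor beads; compounds precede bead addition by 2 h at 37 °C.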
# TRPV1 potentiator: HTS Assay for Compounds that Act as Potentiators of the Vanilloid Receptor 1; Transient receptor potential cation channel subfamily V member 1 (Homo sapiens), Q8NER1; TRPV1-expressing cells, Fluo-8 calcium influx, capsaicin EC20 potentiation; host cell line not named in the record; control for the full effect not named in the record; potentiation, % at 8.33 µM; 0.02% of 320,000 active; AID 540277, 2011; active means potentiation above 80%; inconclusive means 30% to 80%; inactive means below 30%; note: 0% is about no effect
# Target sequence (Q8NER1 whole entry, looked up): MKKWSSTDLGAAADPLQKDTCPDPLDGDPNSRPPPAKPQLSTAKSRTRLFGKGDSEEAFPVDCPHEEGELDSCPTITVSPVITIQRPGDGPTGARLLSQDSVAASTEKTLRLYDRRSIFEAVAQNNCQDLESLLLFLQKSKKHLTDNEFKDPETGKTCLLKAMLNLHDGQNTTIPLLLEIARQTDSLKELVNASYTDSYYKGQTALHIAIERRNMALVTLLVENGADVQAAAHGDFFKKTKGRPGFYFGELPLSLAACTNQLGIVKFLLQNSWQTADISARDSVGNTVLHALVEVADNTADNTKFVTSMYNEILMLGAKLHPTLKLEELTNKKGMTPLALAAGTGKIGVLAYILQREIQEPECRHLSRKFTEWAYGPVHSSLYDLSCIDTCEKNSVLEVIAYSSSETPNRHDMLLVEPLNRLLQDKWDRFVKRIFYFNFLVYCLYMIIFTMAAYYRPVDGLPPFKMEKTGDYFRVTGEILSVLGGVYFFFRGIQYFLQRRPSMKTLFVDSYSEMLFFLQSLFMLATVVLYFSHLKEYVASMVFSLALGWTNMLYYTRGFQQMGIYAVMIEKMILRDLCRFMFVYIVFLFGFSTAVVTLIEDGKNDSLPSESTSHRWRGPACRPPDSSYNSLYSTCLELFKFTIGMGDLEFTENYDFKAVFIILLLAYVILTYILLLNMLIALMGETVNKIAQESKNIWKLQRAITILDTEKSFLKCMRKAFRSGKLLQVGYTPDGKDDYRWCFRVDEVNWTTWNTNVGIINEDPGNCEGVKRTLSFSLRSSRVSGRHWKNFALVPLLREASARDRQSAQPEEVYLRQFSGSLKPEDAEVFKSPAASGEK
#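 Cells expressing TRPV1 were dye-loaded with Fluo-8 and read kinetically: 10 s baseline, 3 min after compound (agonist portion), then 2 min after EC20 capsaicin (allosteric enhancer portion). Calcium-bound dye fluorescence at 480/520 nm.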
# Menin MLL FP FL: qHTS Assay for Inhibitors Targeting the Menin-MLL Interaction in MLL Related Leukemias: Competition With Fluorescein Labeled MLL-derived Peptide | 290,000 tested, under 10 active | FP activity change, % at 61.4 µM | Fluorescence polarization, fluorescein-MLL peptide displacement from menin; inconclusive = falling polarisation curve, or a change in total fluorescence; inactive = total fluorescence flat and polarisation flat or rising; no compound was filed as active; the % refers to the polarisation; negative = inhibition;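 note: % of control where 0% means no effect; inhibitors lower the polarisation; unlabelled MLL peptide was the positive control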
# gsp antag: qHTS for Antagonists of gsp, the Etiologic Mutation Responsible for Fibrous Dysplasia/McCune-Albright Syndrome: qHTS; gsp-mutant cells, cAMP HTRF, 30 min; control for the full effect not named in the record; Potency, µM (doses to about 76.9 µM), for the others: top-dose activity change, negative = inhibition, hits mostly inhibitors; 0.4% of 340,000 active; active = falling curve of any shape with a large fitted effect; inconclusive = falling curve, mostly with a smaller effect; inactive = flat or rising curve; cell line not stated here;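 note: intracellular cAMP measured with PDE inhibitor Ro 20-1724 present during compound exposure; potency is the fitted concentration of half-maximal effect; % is set by controls: 0 for no effect and ±100 for the full control effect; nearly all actives have a fitted effect of over 65% in size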
#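 Cells, 2000/well, grown 16–24 h in DMEM 10% FBS with 0.5 mg/ml G418, then compounds plus […] (300 uM addition stock), 30 min at 37C. cAMP read by HTRF (cAMP-d2 and anti-cAMP antibody-K in lysis buffer) after 30 min RT.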
# Numbers without * were called inactive; ? = inconclusive; · = not tested or not shown; & = joins results of further samples; [ ] = dose if it differs, or a comment.
SMILES,Sfp PPTase inh,gsp ag,ClpP mod,CtBP-E1A blk,TRPV1 potentiator,Menin MLL FP FL,gsp antag
CCOc1ccc(S(=O)(=O)NCc2ccc(OC)cc2)c2cccnc12,16%,4%,-5.6%,-2,2,5.3,1%
COc1ccc(C(=O)OCC(=O)c2ccc(F)cc2)cc1OC,·,-1%[15.4 µM],0.3%,15,·,·,11%
Cc1c(C(=O)N2CCC[C@H]2C(N)=O)oc2c(F)cccc12,9%,?,-1.8%,12,-1,-2.4,12%
CC(C(=O)NCC1CCCCC1)N(C)Cc1ccc(Br)cc1 (configuration not stated),11%,3%[15.4 µM],·,8,-19,-2.2,1%
CCN(CC)c1ccc(N=Cc2ccc(N(CC)CC)cc2O)cc1,?,1%,-0.8%,-15,-11,?,-4%
CCOc1ccc(CN2CCN(Cc3ccc(C)o3)CC2CCO)cc1 (configuration not stated),0%,-30%,1.1%,·,3,-2.1,-3%
Cc1ccc(OCC(=O)Nc2ccc([N+](=O)[O-])cn2)cc1C,·,?,-1.4%,-6,·,·,-10%
Cc1ccc(NC(=O)CC2COc3ccccc3O2)cc1 (configuration not stated),13%,8%,-0.5%,12,-24,3.0,10%
CS(=O)(=O)Nc1ccc(C(=O)Nc2ccccc2Sc2ccccc2)cc1,3%,-1%[15.4 µM],?,-6,8,5.5,-13%
O=C1CCc2cc(S(=O)(=O)N3CCCC3C(=O)N3CCN(c4ccccc4F)CC3)ccc2N1 (configuration not stated),10%,0%,-2.4%,-11,·,3.2,-8%
Cc1ccc(-c2csc(N(CCO)CCCn3c(C(F)(F)F)nc4ccccc43)n2)cc1,-22%,·,0.2%,12,23,-0.4,?
O=C(NNC(=O)c1cccc2ccccc12)c1ccc(Br)cc1,·,-5%[15.4 µM],-20%,5,·,·,4%
Cc1ccc(S[C@@H](CCN2CC[C@H](C(C)(C)C)CCC2=O)c2ccccc2)cc1,-13%,·,-3.5%&-1.7%,-6,-4,-1.6,-11%
c1ccc(CNc2nc3ccccc3n3cnnc23)nc1,-16%,0%,-12%,-2,-8,-0.7,-6%
COc1ccc(NC(=O)c2cn(CCC#N)nc2-c2cc3ccccc3o2)cc1,5%,2%,-16%,0,13,-0.7,-3%
O=S(=O)(Nc1ccc(C(F)(F)F)cc1)c1cccs1,17%,20%[15.4 µM],·,4,6,-0.9,-11%
O=C(NCCNc1ccnc2cc(Cl)ccc12)c1ccccc1F,21%,-2%,-19%,·,-1,1.0,-15%
O=C(CN1CCCC1)N1CCCC(c2ccc(F)cc2)c2ccc(F)cc21 (configuration not stated),-7%,-3%[15.4 µM],1.9%,-2,-13,-0.5,22%
Cc1cccc2c1cnn2C(=O)Nc1ccccc1Br,2%,4%,·,7,2,7.9,12%
COc1cc(NC(=O)CN2CCN(S(=O)(=O)/C=C/c3ccccc3)CC2)cc(OC)c1OC,·,0%,3.2%,·,-8,·,-9%

# The final 2 entries of the section above lead into the next.
SMILES,Sfp PPTase inh,gsp ag,ClpP mod,CtBP-E1A blk,TRPV1 potentiator,Menin MLL FP FL,gsp antag
Cc1cccc2c1cnn2C(=O)Nc1ccccc1Br,2%,4%,·,7,2,7.9,12%
COc1cc(NC(=O)CN2CCN(S(=O)(=O)/C=C/c3ccccc3)CC2)cc(OC)c1OC,·,0%,3.2%,·,-8,·,-9%
CC(C)N(Cc1ccccc1)C(=O)CN1C(=O)c2ccccc2C1=O,14%,20%,-0.1%,2,29,-6.3,-8%
CCN(CC)S(=O)(=O)c1ccc(Cl)c(C(=O)NCc2ccccc2Cl)c1,3%,-12%,1.7%,0,-4,-2.1,-19%
C#CC(CC)(CC)NC(=O)NC1CCCCC1,19%,16%,-0.2%,2,2,-3.5,15%
OCc1cn(-c2ccccc2)nc1-c1ccc2c(c1)OCCO2,1%,20%,28µM*,-1,-4,3.8,-17%
Cc1ccc(-n2cnc3sc(C)c(C)c3c2=O)cc1,16%,25%,·,7,-2,0.9,-1%
COc1ccc(C(=O)N/N=C(\C)CC(=O)Nc2ccc(Cl)cn2)cc1,-4%,-1%[15.4 µM],·,0,-12,0.7,-11%
Cc1cccc(C)c1N1CCN(S(=O)(=O)N2CCCCC2)CC1,2%,8%[15.4 µM],·,5,6,1.2,-16%
O=C(NCc1ccc(Cl)cc1)C(=O)N/N=C/c1ccc(Br)cc1,17%,?,·,6,6,-15,11%
CCOC(=O)c1ccc(NC(=S)NCc2cccnc2)cc1,-1%,-1%,·,11,-21,0.4,1%
O=C(CCl)N1CCN(C(=O)C2COc3ccccc3O2)CC1 (configuration not stated),·,-22%,·,0,·,·,-22%
c1ccc(Cc2noc(CN3CCN(C4CCc5ccccc5C4)CC3)n2)cc1 (configuration not stated),13%,0%[15.4 µM],·,0,11,2.3,-2%
C=CCNc1nc2ccccc2nc1NS(=O)(=O)c1cccc(C)c1,-2%,0%,4.0%,·,1,0.9,-13%
CCN1C(=O)[C@@H]2[C@@H](c3ccc(-c4ccc5c(c4)OCO5)c(OC)c3)N3CCCC[C@@]3(C(=O)OC)[C@@H]2C1=O,·,·,?,-14,24,·,-13%
CCN(CC)c1ccc(NC(=O)CCS(=O)(=O)c2cccc3nsnc23)c(C)c1,0%,-2%[15.4 µM],1.1%&-0.7%,5,-6,3.2,-30%
CC(=O)c1sc(N/N=C/c2cccc(O)c2)nc1C,-20%,18%,-18%,-11,7,?,-10%
CCCN1CCC(=O)N([C@H](CSc2ccc(OC)cc2)c2ccccc2)CC1,9%,-27%,-8.7%,-1,9,2.0,8%
CC(CNC(=O)c1cccc(Br)c1)n1cncn1 (configuration not stated),2%,-47%[inhibitor],·,3,2,-3.5,8%
O=C(CCC(=O)N1CCCC(Nc2ccccc2)C1)c1ccc(F)cc1 (configuration not stated),11%,24%,·,-1,-5,-1.2,2%
CC(=O)N1CCOc2ccc(S(=O)(=O)N3CCC(C(=O)Nc4cc(C)cc(C)c4)CC3)cc21,9%,6%,-1.4%,-4,11,·,?
CCOC(=O)N1CCN(C(=O)C(=O)c2cn(CC(=O)N3CCCCCC3)c3ccccc23)CC1,-10%,-10%[15.4 µM],-5.5%,-18,-6,·,-4%

# Record cards (already shown). Screens in order: Sfp PPTase inh | gsp ag | ClpP mod | CtBP-E1A blk | TRPV1 potentiator | Menin MLL FP FL | gsp antag
# CCN(CC)c1ccc(NC(=O)CCS(=O)(=O)c2cccc3nsnc23)c(C)c1 in the list: 0% | -2%[15.4 µM] | 1.1%&-0.7% | 5 | -6 | 3.2 | -30%
# CC(=O)c1sc(N/N=C/c2cccc(O)c2)nc1C in the list: -20% | 18% | -18% | -11 | 7 | ? | -10%
# CCCN1CCC(=O)N([C@H](CSc2ccc(OC)cc2)c2ccccc2)CC1 in the list: 9% | -27% | -8.7% | -1 | 9 | 2.0 | 8%
# OCc1cn(-c2ccccc2)nc1-c1ccc2c(c1)OCCO2 in the list: 1% | 20% | 28µM* | -1 | -4 | 3.8 | -17%
# CCOC(=O)c1ccc(NC(=S)NCc2cccnc2)cc1 in the list: -1% | -1% | · | 11 | -21 | 0.4 | 1%

# (next part)
SMILES,Sfp PPTase inh,gsp ag,ClpP mod,CtBP-E1A blk,TRPV1 potentiator,Menin MLL FP FL,gsp antag
O=C(ONC(=O)C1CCCCC1C(=O)NOC(=O)c1ccccc1)c1ccccc1 (configuration not stated),·,-11%,·,5,·,·,-18%
Nc1ccc(S(=O)(=O)C(F)(F)F)cc1N,1%,17%,·,10,-5,0.2,2%
CCCCn1c(N)c(N(CCC(C)C)C(=O)C2CC(=O)N(c3ccccc3OCC)C2)c(=O)[nH]c1=O (configuration not stated),15%,4%[15.4 µM],0.8%,3,-3,·,9%
O=C(CC1NC(=O)NC1=O)Nc1ccc(Cl)cc1 (configuration not stated),18%,19%,-0.1%,11,9,6.6,-2%
O=C(COC(=O)c1cccc(O)c1)NC(=O)Cc1ccccc1,15%,-6%,0.3%,4,12,·,9%
COc1cccc(/C=N/Nc2ncnc3scc(-c4ccccc4)c23)c1O,?,2%,-0.6%,-5,0,8.0,?
Cc1cccc(NC(=O)c2ccccc2NC(=O)c2ccccc2)n1,-4%,0%,-0.1%,·,-3,1.9,3%
CCc1nnc(SCC(=O)Nc2ccccc2Cl)nc1CC,8%,3%[15.4 µM],-0.8%,0,-1,-2.0,-6%
COc1ccc(N/C=C2\C(=O)c3c(sc(C)c3C)N(C)S2(=O)=O)cc1,5%,-3%[15.4 µM],0.6%,4,-1,6.0,6%
Cc1cccc(C(=O)N(C)c2nnc(-c3ccncc3)s2)c1,·,-7%,25%,6,·,·,-2%
CCOC(=O)C(NCc1ccc2c(c1)OCO2)(NC(=O)c1ccccc1)C(F)(F)F (configuration not stated),7%,18%,-1.3%,-1,-10,1.9,3%
CC1(C)CCCC2=C1CC1C(=O)N(Cc3cccnc3)C(=O)C1C2 (configuration not stated),10%,0%,-1.2%,-1,3,-0.1,1%
COc1ccc2c(=O)cc(-c3ccncc3)oc2c1OC,·,-24%,·,-6,·,·,9%
CN(C1CCCCC1)S(=O)(=O)c1cccc(C(=O)Nc2ccccn2)c1,·,-23%,-1.4%,-4,-5,·,-7%
O=C(Cn1cccc1)NC1CCCCCC1,11%,-5%,0.3%,-8,·,1.1,7%
CC(C)(C)c1ccc(OCC(=O)Nc2ccncc2)c(Br)c1,12%,8%,-3.5%,·,-3,2.2,-12%
O=C(CNC(=O)c1ccccc1Br)N/N=C\c1cc([N+](=O)[O-])cc(Br)c1O,25%,0%,·,-73*,0,0.4,-5%
CCc1ccc(C(=O)N2CCCN(C)CC2)s1,9%,17%[15.4 µM],-2.5%,4,5,-0.8,5%
O=C(OCC(=O)N1CCCCC1)c1cccc(NS(=O)(=O)c2ccccc2)c1,·,12%,-2.8%,-20,-15,·,-2%
